Screening results: PubChem BioAssay, Broad Institute
UUG fidelity – modulators of yeast start codon fidelity, primary screen, whole organism, S. cerevisiae, single point, plate reader; S. cerevisiae UUG-firefly luciferase reporter, luminescence/redox ratio; activity score, % at 18.7 µM; actives 0.13% (n = 350,000); AID 602363, 2012;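 active = replicate mean at a twofold rise or more, about +100% in these data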;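 also: firefly luciferase made from a UUG start codon reports start codon fidelity; reporter light over untreated wells divided by growth signal over untreated wells; some hits fall short of that in this replicate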
HIV Env fusion – inhibitors of HIV-1 Env-driven cell-cell fusion, primary screen, HeLa-JRFL effector, CEM21 target cells, luciferase; actives 1.1% (n = 360,000); inhibition, % at 12.3 µM;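 active = mean replicate inhibition score of at least 50 and every replicate individually at or above 50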;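 also: 0% = plate neutral controls and 100% = maraviroc near 300 nM; one replicate is shown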
The depositor's hits bear a star; & = joins results of further samples; [ ] = another dose, or the depositor's remark.

Screening C[C@H](CO)N1C[C@H](C)[C@H](CN(C)C(=O)c2ccccc2)OCCCC[C@H](C)Oc2ccc(NC(=O)Nc3ccc(F)cc3)cc2C1=O returned UUG fidelity 9 and HIV Env fusion 27[16.7 µM].
C[C@@H]1CN([C@@H](C)CO)C(=O)c2cc(NC(=O)C3CCCCC3)ccc2O[C@@H]1CN(C)Cc1ccncc1 was read as UUG fidelity -3 and HIV Env fusion -7[16.7 µM].
`COCC(=O)N(C)C[C@H]1Oc2ncc(-c3ccccc3F)cc2C(=O)N([C@@H](C)CO)C[C@@H]1C` gave UUG fidelity -8 and HIV Env fusion 4[16.7 µM].
For Cc1noc(C)c1NC(=O)Nc1ccc2c(c1)C(=O)N([C@@H](C)CO)C[C@@H](C)[C@@H](CN(C)S(=O)(=O)c1ccccc1)OCCCC[C@H](C)O2 the results were UUG fidelity -3 and HIV Env fusion -3[16.7 µM].
For CCCNC(=O)C[C@H]1CC[C@H]2[C@@H](COc3ccc(NC(=O)Nc4ccccc4F)cc3C(=O)N2C)O1 the results were UUG fidelity 6 and HIV Env fusion 14[16.7 µM].
Screening COc1ccc(NC(=O)N(C)C[C@H]2OCCCC[C@@H](C)Oc3ccc(NC(=O)Nc4ccc5c(c4)OCO5)cc3C(=O)N([C@@H](C)CO)C[C@H]2C)cc1 returned UUG fidelity 6 and HIV Env fusion -21[16.7 µM].
For COc1ccc(CN(C)C[C@H]2Oc3ccc(NS(=O)(=O)c4ccc(OC)cc4)cc3CC(=O)N([C@H](C)CO)C[C@H]2C)cc1 the results were UUG fidelity -27 and HIV Env fusion 10[16.7 µM].
CN1C(=O)c2cc(NC(=O)c3cnccn3)ccc2OC[C@@H]2O[C@@H](CC(=O)O)CC[C@@H]21 was read as UUG fidelity -10 and HIV Env fusion -12[16.7 µM].
Screening CC(C)CC#Cc1ccc2c(c1)O[C@H](CN(C)S(=O)(=O)c1cccc(F)c1)[C@@H](C)CN([C@@H](C)CO)S2(=O)=O returned UUG fidelity -1 and HIV Env fusion 36[16.7 µM].
Screening C[C@@H]1CN([C@@H](C)CO)C(=O)Cc2cc(NC(=O)Nc3ccc4c(c3)OCO4)ccc2O[C@H]1CN(C)C(=O)Nc1ccccc1 returned UUG fidelity 18 and HIV Env fusion 8[16.7 µM].
C[C@H](CO)N1C[C@H](C)[C@H](CN(C)C(=O)Nc2ccc(C(F)(F)F)cc2)Oc2ccc(NC(=O)C3CC3)cc2CC1=O was read as UUG fidelity 13 and HIV Env fusion 3[16.7 µM].
For COc1ccc(-c2ccc3c(c2)O[C@@H](CN(C)C(C)=O)[C@@H](C)CN([C@H](C)CO)S3(=O)=O)cc1 the results were UUG fidelity 18 and HIV Env fusion 7[16.7 µM].
For Cc1ccccc1-c1cnc2c(c1)C(=O)N([C@@H](C)CO)C[C@@H](C)[C@@H](CN(C)C(=O)c1ccc(F)cc1)O2 the results were UUG fidelity 13 and HIV Env fusion -4[16.7 µM].
C[C@H]1CCCCO[C@@H](CN(C)Cc2ccccc2)[C@@H](C)CN([C@@H](C)CO)C(=O)c2cc(NC(=O)Nc3cccc4ccccc34)ccc2O1 was read as UUG fidelity 10 and HIV Env fusion 110*[16.7 µM].
COCC(=O)Nc1ccc2c(c1)[C@H]1C[C@@H](CC(=O)N3CCCCC3)O[C@@H](CO)[C@H]1O2 was read as UUG fidelity 23 and HIV Env fusion -20[16.7 µM].
Cc1cccc(CN(C)C[C@@H]2Oc3ncc(-c4cc5ccccc5o4)cc3C(=O)N([C@H](C)CO)C[C@@H]2C)c1 was read as UUG fidelity -9 and HIV Env fusion -33[16.7 µM].
`C[C@@H]1CN([C@H](C)CO)S(=O)(=O)c2ccc(Br)cc2O[C@H]1CN(C)CC1CCOCC1` gave UUG fidelity -8&-11 and HIV Env fusion 11.
For O=C(C[C@@H]1CC[C@H](NC(=O)Nc2ccccc2)[C@@H](CO)O1)NCc1cccc(F)c1 the results were UUG fidelity -14 and HIV Env fusion 10[16.7 µM].
C[C@H](CO)N1C[C@H](C)[C@@H](CN(C)Cc2ccc(-c3ccccc3)cc2)Oc2cc(C#CC(C)(C)O)ccc2S1(=O)=O was read as UUG fidelity -1 and HIV Env fusion 6[16.7 µM].
For C[C@@H]1CN([C@@H](C)CO)S(=O)(=O)c2ccc(C3=CCCC3)cc2O[C@@H]1CN(C)C(=O)Nc1ccc2c(c1)OCO2 the results were UUG fidelity 10 and HIV Env fusion -65[16.7 µM].

Pulled one by one from the list above, four records:
Screening COc1ccc(NC(=O)N(C)C[C@H]2OCCCC[C@@H](C)Oc3ccc(NC(=O)Nc4ccc5c(c4)OCO5)cc3C(=O)N([C@@H](C)CO)C[C@H]2C)cc1 returned UUG fidelity 6 and HIV Env fusion -21[16.7 µM].
`C[C@@H]1CN([C@H](C)CO)S(=O)(=O)c2ccc(Br)cc2O[C@H]1CN(C)CC1CCOCC1` gave UUG fidelity -8&-11 and HIV Env fusion 11.
Cc1cccc(CN(C)C[C@@H]2Oc3ncc(-c4cc5ccccc5o4)cc3C(=O)N([C@H](C)CO)C[C@@H]2C)c1 was read as UUG fidelity -9 and HIV Env fusion -33[16.7 µM].
For COc1ccc(-c2ccc3c(c2)O[C@@H](CN(C)C(C)=O)[C@@H](C)CN([C@H](C)CO)S3(=O)=O)cc1 the results were UUG fidelity 18 and HIV Env fusion 7[16.7 µM].

The list goes on.
For Cc1noc(C)c1NC(=O)N(C)C[C@H]1OCCCC[C@H](C)Oc2ccc(NC(=O)c3ccccc3)cc2C(=O)N([C@@H](C)CO)C[C@@H]1C the results were UUG fidelity -3 and HIV Env fusion 26[16.7 µM].
For C[C@H]1CN([C@@H](C)CO)C(=O)Cc2cc(NC(=O)C3CC3)ccc2O[C@@H]1CN(C)CC1CC1 the results were UUG fidelity -2 and HIV Env fusion 6[16.7 µM].
`COc1ccccc1NC(=O)N[C@@H]1CC[C@H](CC(=O)N2CCC(Cc3ccccc3)CC2)O[C@H]1CO` gave UUG fidelity -1 and HIV Env fusion -5[16.7 µM].
Screening CCCNC(=O)C[C@@H]1CC[C@H]2[C@H](COc3ccc(NS(=O)(=O)CC)cc3C(=O)N2C)O1 returned UUG fidelity -19 and HIV Env fusion -15[16.7 µM].
Cc1ccc(S(=O)(=O)N(C)C[C@@H]2OCCCC[C@@H](C)Oc3ccc(NC(=O)C4CCCCC4)cc3C(=O)N([C@@H](C)CO)C[C@H]2C)cc1 was read as UUG fidelity -2 and HIV Env fusion 18[16.7 µM].
For C[C@H]1CN([C@@H](C)CO)C(=O)c2cc(Br)cnc2O[C@@H]1CN(C)C(=O)Nc1ccc(F)cc1 the results were UUG fidelity -8 and HIV Env fusion 11[16.7 µM].
Screening COc1ccccc1-c1cnc2c(c1)C(=O)N([C@H](C)CO)C[C@@H](C)[C@@H](CN(C)C(=O)CC1CC1)O2 returned UUG fidelity 0 and HIV Env fusion 6[16.7 µM].
`COCC(=O)Nc1ccc2c(c1)C(=O)N(C)[C@@H]1CC[C@@H](CC(=O)NCC3CC3)O[C@@H]1CO2` gave UUG fidelity -6 and HIV Env fusion 11[16.7 µM].
Screening COc1ccccc1-c1cn(CC[C@@H]2CC[C@H](NC(=O)C3CCOCC3)[C@H](CO)O2)nn1 returned UUG fidelity -3 and HIV Env fusion -21[16.7 µM].
For COc1cccc(C#Cc2ccc([C@H]3[C@@H](CO)N(C(=O)C4CCC4)[C@H]3C#N)cc2)c1 the results were UUG fidelity 7 and HIV Env fusion 27[16.7 µM].
Screening O=C(OC(C(=O)NCc1ccccc1)c1ccco1)c1ccccc1 (configuration not stated) returned UUG fidelity -1 and HIV Env fusion 2[16.7 µM].
Screening C[C@@H]1CCCCO[C@@H](CN(C)S(=O)(=O)c2ccccc2)[C@@H](C)CN([C@@H](C)CO)C(=O)c2cc(NS(=O)(=O)c3ccc(F)cc3)ccc2O1 returned UUG fidelity -5 and HIV Env fusion -60[16.7 µM].
For Cn1cnc(S(=O)(=O)N[C@H]2CC[C@@H](CC(=O)Nc3ccccc3)O[C@H]2CO)c1 the results were UUG fidelity -8 and HIV Env fusion -1[16.7 µM].
`CCCNC(=O)N(C)C[C@@H]1Oc2ncc(-c3ccccc3)cc2C(=O)N([C@H](C)CO)C[C@@H]1C` gave UUG fidelity -5 and HIV Env fusion 13[16.7 µM].
`Cn1cnc(S(=O)(=O)N[C@@H]2C=C[C@@H](CC(=O)NCC3CCCCC3)O[C@@H]2CO)c1` gave UUG fidelity -12 and HIV Env fusion 9[16.7 µM].
CC(C)NC(=O)N(C)C[C@H]1Oc2ncc(-c3ccccc3F)cc2C(=O)N([C@H](C)CO)C[C@@H]1C was read as UUG fidelity -1 and HIV Env fusion -6[16.7 µM].
C[C@@H]1CN([C@H](C)CO)C(=O)c2cc(NS(=O)(=O)c3cccs3)ccc2O[C@@H](C)CCCCO[C@@H]1CN(C)Cc1ccc(C(=O)O)cc1 was read as UUG fidelity 6 and HIV Env fusion -14[16.7 µM].
O=C(N[C@H]1CC[C@@H](CCn2cc(Cc3ccccc3)nn2)O[C@H]1CO)c1ccccn1 was read as UUG fidelity -7 and HIV Env fusion -4[16.7 µM].
Screening C[C@@H]1CN([C@H](C)CO)S(=O)(=O)c2ccc(-c3cncnc3)cc2O[C@@H]1CN(C)C(=O)Cc1ccccc1 returned UUG fidelity -3 and HIV Env fusion -37[16.7 µM].
Screening C[C@H](CO)N1C[C@H](C)[C@@H](CN(C)Cc2ccc(Cl)c(Cl)c2)Oc2c(NS(=O)(=O)c3ccccc3)cccc2C1=O returned UUG fidelity -12&-2 and HIV Env fusion 33[16.7 µM].

Not a retest: an excerpt of the list.
`COCC(=O)Nc1ccc2c(c1)C(=O)N(C)[C@@H]1CC[C@@H](CC(=O)NCC3CC3)O[C@@H]1CO2` gave UUG fidelity -6 and HIV Env fusion 11[16.7 µM].
Screening COc1ccccc1-c1cn(CC[C@@H]2CC[C@H](NC(=O)C3CCOCC3)[C@H](CO)O2)nn1 returned UUG fidelity -3 and HIV Env fusion -21[16.7 µM].
For COc1cccc(C#Cc2ccc([C@H]3[C@@H](CO)N(C(=O)C4CCC4)[C@H]3C#N)cc2)c1 the results were UUG fidelity 7 and HIV Env fusion 27[16.7 µM].

Carrying on.
Screening COc1ccc(S(=O)(=O)N(C)C[C@H]2Oc3ccc(NC(=O)Nc4ccc(C(F)(F)F)cc4)cc3C(=O)N([C@H](C)CO)C[C@H]2C)cc1 returned UUG fidelity -8 and HIV Env fusion 3[16.7 µM].
For Cc1noc(C)c1S(=O)(=O)Nc1ccc2c(c1)C(=O)N([C@@H](C)CO)C[C@H](C)[C@H](CN(C)Cc1ccc(C(=O)O)cc1)OCCCC[C@@H](C)O2 the results were UUG fidelity -23 and HIV Env fusion -12[16.7 µM].
For O=C(C[C@H]1CC[C@H](NC(=O)Nc2cccc(F)c2)[C@@H](CO)O1)NCC1CCCCC1 the results were UUG fidelity -13 and HIV Env fusion 2[16.7 µM].
`C[C@@H]1CN([C@H](C)CO)C(=O)c2cccc(NS(=O)(=O)c3ccc(F)cc3)c2O[C@H]1CN(C)C(=O)Nc1ccc2c(c1)OCO2` gave UUG fidelity 7 and HIV Env fusion -1[16.7 µM].
Screening COc1cccc(-c2cnc3c(c2)C(=O)N([C@@H](C)CO)C[C@H](C)[C@@H](CN(C)C(=O)Nc2ccccc2F)O3)c1 returned UUG fidelity 7 and HIV Env fusion -2[16.7 µM].
Screening C[C@@H]1CCCCO[C@H](CN(C)S(=O)(=O)c2ccccc2)[C@@H](C)CN([C@@H](C)CO)C(=O)c2cc(NC(=O)Nc3cccc4ccccc34)ccc2O1 returned UUG fidelity -8 and HIV Env fusion -78[16.7 µM].
Screening C[C@@H]1CN([C@@H](C)CO)C(=O)Cc2cc(NC(=O)Nc3ccc(F)cc3)ccc2O[C@@H]1CN(C)C(=O)Nc1ccc(F)cc1 returned UUG fidelity -3 and HIV Env fusion -7[16.7 µM].
Screening CC(=O)Nc1ccc2c(c1)C(=O)N(C)[C@H]1CC[C@@H](CC(=O)Nc3cn(C)nc3C)O[C@@H]1CO2 returned UUG fidelity -7 and HIV Env fusion -2[16.7 µM].
C[C@@H]1CN([C@H](C)CO)S(=O)(=O)c2ccc(C#CCN(C)C)cc2O[C@@H]1CN(C)S(C)(=O)=O was read as UUG fidelity 24 and HIV Env fusion 0[16.7 µM].
For CCCNC(=O)N1[C@H](C#N)[C@H](c2ccc(-c3ccc(C(=O)N(C)C)cc3)cc2)[C@H]1CO the results were UUG fidelity 10 and HIV Env fusion 3[16.7 µM].
Screening C[C@@H]1CCCCO[C@@H](CN(C)Cc2ccccc2)[C@@H](C)CN([C@@H](C)CO)C(=O)c2cc(NC(=O)C3CCCCC3)ccc2O1 returned UUG fidelity 5 and HIV Env fusion -2[16.7 µM].
For CN(C)CC(=O)Nc1ccc2c(c1)[C@H]1C[C@@H](CC(=O)NC3CCCC3)O[C@H](CO)[C@H]1O2 the results were UUG fidelity 0 and HIV Env fusion 4[16.7 µM].
For C[C@@H]1CN([C@H](C)CO)C(=O)Cc2cc(NC(=O)CCCCCC(=O)Nc3ccccc3N)ccc2O[C@@H]1CN(C)Cc1ccc(-c2ccccc2)cc1 the results were UUG fidelity 2 and HIV Env fusion 1[16.7 µM].
`COc1ccccc1S(=O)(=O)N[C@H]1CC[C@@H](CCNC(=O)C2CCCCC2)O[C@H]1CO` gave UUG fidelity 3 and HIV Env fusion -18[16.7 µM].
Screening Cc1ccc(S(=O)(=O)N(C)C[C@H]2Oc3c(NC(=O)Nc4ccc(F)cc4)cccc3C(=O)N([C@H](C)CO)C[C@@H]2C)cc1 returned UUG fidelity -4 and HIV Env fusion 4[16.7 µM].

Only part of the results is shown (hit frequency here may not be typical).
